TRPV1 PAM – potentiators of human vanilloid receptor 1 (TRPV1) | potentiation, % at 8.33 µM | Q8NER1 | hit rate 0.02% among 320,000 | AID 540277 | TRPV1-expressing cells, Fluo-8 calcium influx, capsaicin EC20 potentiation; host cell line not named in the record; control for the full effect not named in the record; active means potentiation above 80%; inconclusive means 30% to 80%; inactive means below 30%; further: 0% is about no effect
Target sequence (Q8NER1 whole entry, looked up): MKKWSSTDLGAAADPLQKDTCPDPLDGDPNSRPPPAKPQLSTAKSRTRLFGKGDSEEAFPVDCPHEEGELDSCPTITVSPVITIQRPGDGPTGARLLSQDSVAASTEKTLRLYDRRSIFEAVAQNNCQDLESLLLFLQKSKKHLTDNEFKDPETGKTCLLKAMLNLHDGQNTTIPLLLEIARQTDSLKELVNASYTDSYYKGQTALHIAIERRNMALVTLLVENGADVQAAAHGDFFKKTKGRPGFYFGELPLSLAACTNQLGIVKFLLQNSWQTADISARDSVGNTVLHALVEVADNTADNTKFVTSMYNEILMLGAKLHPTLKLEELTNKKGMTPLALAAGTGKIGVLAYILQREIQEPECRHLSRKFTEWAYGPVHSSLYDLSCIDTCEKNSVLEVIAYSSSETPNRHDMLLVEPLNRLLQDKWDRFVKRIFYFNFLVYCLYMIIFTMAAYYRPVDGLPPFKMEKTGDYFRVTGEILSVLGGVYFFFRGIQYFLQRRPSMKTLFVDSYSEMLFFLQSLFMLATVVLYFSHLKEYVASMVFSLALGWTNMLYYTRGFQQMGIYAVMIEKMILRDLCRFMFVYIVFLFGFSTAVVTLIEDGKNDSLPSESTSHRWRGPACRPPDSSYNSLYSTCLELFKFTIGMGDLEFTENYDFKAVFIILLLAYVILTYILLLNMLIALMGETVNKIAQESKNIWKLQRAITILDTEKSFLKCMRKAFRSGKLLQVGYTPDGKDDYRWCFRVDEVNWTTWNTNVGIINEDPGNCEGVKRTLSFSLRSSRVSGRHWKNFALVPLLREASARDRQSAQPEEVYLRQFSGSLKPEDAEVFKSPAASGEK
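Fluo-8 calcium influx in TRPV1-expressing cells, kinetic read (ex 480/em 520 nm). Compound added and read 3 min for agonist activity, followed by capsaicin at EC20 final and 2 min further read for enhancement.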
D2 PAM – potentiates the human D2 dopamine receptor allosterically; hit rate 0.23% among 360,000; DiscoveRx D2 beta-arrestin cells, luminescence, 90 min; 100% = 57 uM dopamine signal; potentiation, % (concentration not given with the values); P14416; active = potentiation of 50% or more; inconclusive = 30% to 50%; inactive = 30% or less;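 further: compound concentration not given in the record; tested on top of an EC20 dose of dopamine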
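PathHunter D2 cells, attached overnight at 37 deg C, received compound in DMSO plus dopamine at EC20 (50 nM final) for 90 min at 37 deg C. Beta-arrestin recruitment was read as luminescence after 1 h with detection reagent at ambient temperature.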
Menin MLL FP FL – displaces fluorescein MLL peptide from human menin; Fluorescence polarization, fluorescein-MLL peptide displacement from menin; FP activity change, % at 61.4 µM; 290,000 tested, under 10 active; AID 1766; inconclusive = falling polarisation curve, or a change in total fluorescence; inactive = total fluorescence flat and polarisation flat or rising; no compound was filed as active; the % refers to the polarisation; negative = inhibition;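 further: % of control where 0% means no effect; inhibitors lower the polarisation; unlabelled MLL peptide was the positive control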
Sfp PPTase inh – blocks B. subtilis Sfp PPTase activity; Q9F4F7; Biochemical Sfp PPTase activity, qHTS; Potency, µM, inactives show max response, negative = inhibition, hits mostly inhibitors; hit rate 3.5% among 310,000; AID 1490; active means well fitted inhibition curve with a large enough effect; inconclusive means small, poorly fitted or top-dose-only effect, or another doubt; inactive means no such curve, though single readings can be large or run the other way;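 further: the enzyme is Sfp with the accession as filed and its product quenches rhodamine fluorescence; potency means the concentration at half of the fitted maximal effect; 0% = enzyme reaction without inhibitor and -100% = no enzyme wells; top concentration of the series not given in the record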
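With Hepes-Na pH 7.6 buffer containing 10 mM MgCl2, Sfp (15 nM) modified BHQ-2-YbbR (12.5 uM) using rhodamine-CoA (5 uM). Two reads 30 minutes apart at 525/598 nm yielded each well's rate.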
gsp agonist – activates gsp, the McCune-Albright syndrome mutation; Potency, µM (highest dose often 76.9 µM), inactives show at the highest dose activation (cAMP increase), usual class: activators; gsp mutant cells, cAMP HTRF, 30 min; control for the full effect not named in the record; hit rate 0.13% among 340,000; AID 624287; active = well fitted activation curve with a large enough effect; inconclusive = small, poorly fitted or top-dose-only effect, or another doubt; inactive = no such curve, though single readings can be large or run the other way; cell line not stated here;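 further: phosphodiesterase inhibitor Ro 20-1724 added with compounds to block cAMP breakdown; potency means the concentration at half of the fitted maximal effect; nearly all actives have a fitted effect of over 60% in size; about a fifth of the inactives were tested at one dose only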
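Cells stably selected in G418 were plated at 2000/well, grown 16-24 hr, then given compounds in DMSO with the PDE inhibitor […] (300 uM solution added) for 30 min at 37C; cAMP was read by HTRF.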
gsp antagonist – antagonizes gsp, the McCune-Albright syndrome mutation | Potency, µM (doses to about 76.9 µM), for inactives: at the top dose activity change, negative = inhibition, hits mostly inhibitors | hit rate 0.4% among 340,000 | gsp-mutant cells, cAMP HTRF, 30 min; control for the full effect not named in the record; active = falling curve of any shape with a large fitted effect; inconclusive = falling curve, mostly with a smaller effect; inactive = flat or rising curve; cell line not stated here;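 further: intracellular cAMP measured with PDE inhibitor Ro 20-1724 present during compound exposure; potency means the concentration at half of the fitted maximal effect; on the % scale 0 is the no-effect control and ±100 the full control effect; nearly all actives have a fitted effect of over 65% in size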
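G418-selected cells were plated in DMEM/10% FBS for 16-24 h at 37C, then treated with compounds plus the PDE inhibitor […] (300 uM solution added) for 30 min at 37C. Intracellular cAMP was measured by HTRF after 30 min lysis at room temperature.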
ClpP mod – qHTS Assay for Activators of ClpP; hit rate 1.9% among 340,000; Potency, µM (highest dose often 57.5 µM), inactives show at the highest dose activity change, negative = active; purified B. subtilis ClpP, FRET peptide cleavage, 20 min; active = well fitted falling curve with a large enough effect; inconclusive = small, poorly fitted or top-dose-only effect; inactive = no such curve, though single readings can be large or run the other way; further: potency means the concentration at half of the fitted maximal effect; the source files actives as falling curves though it sought activators and does not explain the sign; nearly all actives have a fitted effect of over 65% in size; many hits overshoot -100%
Target sequence (P80244 whole entry, looked up): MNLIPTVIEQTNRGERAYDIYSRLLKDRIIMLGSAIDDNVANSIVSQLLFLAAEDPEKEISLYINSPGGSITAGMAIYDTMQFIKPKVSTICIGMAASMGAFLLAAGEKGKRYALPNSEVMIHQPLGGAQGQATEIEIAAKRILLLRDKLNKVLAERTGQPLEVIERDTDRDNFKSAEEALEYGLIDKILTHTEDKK
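Buffer: 100 mM Tris/HCl pH8, 100 mM KCl, 0.05% low protease BSA, 2.5% glycerol, 0.01% Tween-20. ClpP 10 microg/mL final; 20 min RT; delta FRET normalized to ADEP and DMSO controls.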
The depositor's hits bear a star; ? = inconclusive; . = not tested or not shown; & = joins results of further samples; [ ] = dose if it differs, or a comment.

Screens in order: TRPV1 PAM	D2 PAM	Menin MLL FP FL	Sfp PPTase inh	gsp agonist	gsp antagonist	ClpP mod
Cc1cc(C)n2nc(C(=O)OCC(=O)c3c[nH]c4ccccc34)nc2n1
 : 2.3	-5.9	-0.2	23.1%	-1.4%	-0.8%	-3.7%
CC(CN1CCN(C/C=C/c2ccccc2)CC1)c1ccccc1 (stereo not given)
 : -8.2	-15.5	-1.2	-11.6%	-3.8%[15.4 µM]	6.7%	0.0%
CCN(CC)C(=O)c1cccc(C)c1
 : -4.2	-5.4	3.7	18.1%	.	-1.9%	-1.8%
COc1ccc(CN(CC(=O)NC2CCCC2)C(=O)c2csnn2)cc1
 : -15.4	0.9	2.7	13.7%	-2.6%	-5.3%	.
CN(C)S(=O)(=O)c1cccc(N=c2scc(-c3ccc4c(c3)NC(=O)CO4)n2CC2CCCO2)c1 (stereo not given)
 : 7.5	-1.4	0.4	-16.6%	-17.2%	?	-0.9%
O=C(CNC(=O)OCc1ccccc1)NC1CCCCNC1=O (stereo not given)
 : -3.0	-3.1	-2.2	18.1%	-33.7%[inhibitor]	11.7%	.
Cc1nnc(SCC2CCCO2)n1-c1ccccc1 (stereo not given)
 : 5.3	-16.1	-3.2	16.2%	4.8%	3.6%	-0.5%
CC(C)(C)c1cc(-c2ccccc2)no1
 : 0.4	-1.2	?	4.2%	9.9%	3.3%	.
CCCCCCCCCCC[C@@H](C[C@@H]1OC(=O)[C@H]1CCCCCC)OC(=O)[C@H](CC(C)C)NC=O
 : 3.3	-2.3	7.2&-3.4	-20.0%&16.8%	.	17.4%	0.7%
O=c1[nH]c(=S)[nH]c2nccnc12
 : .	-5.7	.	.	-5.3%	2.9%	.
Cc1ccc(OCc2cc(C(=O)NCCc3cccnc3)no2)cc1C
 : -15.7	0.6	.	2.3%	-30.9%[inhibitor]	-6.6%	-1.3%
Cc1cc(NC(=O)c2ccc(Cl)cc2)n(-c2ccccc2)n1
 : ?	-10.5	-2.9	12.4%	-33.1%[inhibitor]	-4.3%	1.9%
COc1cc(Cl)c(C)cc1NC(=O)CSCC#N
 : 4.2	-17.1	-1.6	11.3%	?	6.3%	0.9%
COc1ccccc1NC(=O)COC(=O)CCC(=O)c1cccs1
 : 16.6	13.5	.	.	7.9%	9.0%	0.8%
C=CCNC(=O)c1c(Br)cnn1-c1ccc(C)cc1
 : -4.8	4.4	-2.2	2.0%	1.1%	-6.4%	.
COc1ccc(S(=O)(=O)Nc2ccc3c(c2)C(=O)N([C@@H](C)CO)C[C@H](C)[C@H](CN(C)CC2CC2)O3)cc1
 : .	-9.9	.	.	22.5%	0.9%	-1.2%
CCOc1ccccc1NC(=O)CSc1nnc(Cc2ccc(OC)cc2)c(=O)n1N
 : 6.6	-2.1	.	.	15.9%	-9.0%	-9.1%
CN(C)C(CNc1ccc(C(F)(F)F)cc1[N+](=O)[O-])c1ccccc1 (stereo not given)
 : 0.1	-13.9	1.8	-11.2%	17.9%[15.4 µM]	-38.7%	.
CCOC(=O)N1CCN(S(=O)(=O)c2ccc(C(=O)N(CCCN(C)C)c3nc4ccc(CC)cc4s3)cc2)CC1
 : -0.4	-32.5	-2.3	-22.6%	-40.3%[inhibitor]	-4.1%	-0.7%
Cc1ccc([C@@H]2[C@@H]3C(=O)N(C)C(=O)[C@@H]3[C@]3(Cc4ccccc4)C(=O)N(CCO)CC(=O)N23)o1
 : 10.2	-6.5	3.7	-1.4%	12.4%	4.7%	-0.5%
NS(=O)(=O)c1ccc(NC(=S)Nc2ccc(F)c(F)c2)cc1
 : 7.9	-16.2	7.3	-5.3%	-33.2%	13.8%	0.9%
O=C(O)C1CCCN1C(=O)Nc1ccc(F)cc1 (stereo not given)
 : -7.1	-2.3	-0.2	-7.6%	-14.9%	12.9%	0.7%
CN(CC(O)COCc1cccs1)C1CCCCC1 (stereo not given)
 : 2.9	0.2	1.1	12.5%	-31.0%[inhibitor]	-0.7%	-1.1%
CC(=O)Nc1ccc(-c2ccnc(-c3ccc(NC(C)=O)cc3)n2)cc1
 : -8.9	-12.5	-1.6	1.7%	6.4%[15.4 µM]	0.4%	0.7%
O=C(NC1CCN(Cc2ccccc2)CC1)c1cccc(S(=O)(=O)Nc2ccc(F)cc2)c1
 : -11.7	-5.6	.	.	0.9%	-16.9%	-0.1%
COc1ccc(-c2nc3cnccn3c2NCc2ccccc2)cc1SC1CCCCC1
 : 14.6	-6.0	.	.	41.1%	-8.1%	?
COC(=O)c1cc(S(=O)(=O)N2CCCC2)c(Cl)cc1Cl
 : -15.1	1.3	1.0	12.1%	-42.6%[inhibitor]	-10.0%	.
CCCN(CC(=O)Nc1ccccc1OC)C(=O)c1ccc2[nH]c3c(c2c1)CC(C)CC3 (stereo not given)
 : 14.0	-4.0	.	.	-1.8%	-18.8%	-8.0%
CCOC(=O)C1=CN(CC)S(=O)(=O)NC1c1ccccc1 (stereo not given)
 : .	-3.4	.	.	.	11.1%	-0.8%
CC(C)C(=O)N1CCN(c2ccc([N+](=O)[O-])c(NC(C)c3ccccc3)c2)CC1 (stereo not given)
 : -20.0	-8.0	2.7	-10.8%	-8.9%[15.4 µM]	-35.4%	1.1%
CCc1nccn1CCC(=O)NC1CCCc2c1cnn2-c1ccc(F)cc1F (stereo not given)
 : 5.1	-9.4	.	11.3%	-13.2%	12.5%	-2.2%
CN(C)c1ccc(-c2nn3c(-c4ccccc4Cl)nnc3s2)cc1
 : -20.5	-7.2	3.9	-12.6%	-2.0%	35.9%[activator]	15.8µM*
COc1ccc(CC(=O)OCC(=O)N(C)C2CCS(=O)(=O)C2)cc1OC (stereo not given)
 : 7.7	-6.2	.	.	-14.4%[15.4 µM]	16.8%	1.5%
Cn1c(SCC(=O)Nc2ccc(C(N)=O)cc2)nc2c(c1=O)SCC2
 : 4.4	1.4	1.1	5.0%	1.9%	-4.5%	-0.7%
Cc1ccc(NC(=O)N2CCN(Cc3ccc4c(c3)OCO4)CC2)cc1
 : -7.1	-11.6	2.1	-6.9%	-37.1%[inhibitor]	-10.7%	-2.7%
COc1ccc(CCNC(=O)C2CCCN2C(=O)Nc2cccc(OC)c2)cc1 (stereo not given)
 : 0.7	-1.0	0.4	-4.3%	-4.2%	1.8%	0.0%
COc1ccc(-c2nc(-c3ccccn3)nc(N3CCN(C)CC3)c2C#N)cc1
 : -12.8	-7.3	-1.6	12.1%	-25.2%	-6.7%	.
Cc1n[nH]c(C)c1CCc1nc2c3ccccc3nc(SCC(=O)Nc3ccccc3F)n2n1
 : 9.1	2.5	2.2	-12.2%	14.7%	-3.5%	6.5%
O=C(NC1CC1)c1cccc2c1C(=O)c1ccc(N3CCC(N4CCCCC4)CC3)cc1S2(=O)=O
 : .	-3.4	.	.	-31.3%[inhibitor]	.	-0.6%
CCn1c2ccccc2c2nnc(SCC(=O)c3c(N)n(C)c(=O)n(C)c3=O)nc21
 : 7.0	-6.8	0.1	22.6%	9.1%	-9.1%	1.6%
CC(C)(C)c1nc2ccc([N+](=O)[O-])cc2[nH]1
 : 4.6	-3.2	1.8	1.5%	-1.2%[15.4 µM]	-3.9%	0.3%
O=C(Nc1cc(C(F)(F)F)ccc1N1CCOCC1)C1=NN(c2ccccc2)C(=O)CC1
 : -4.5	-5.1	.	-1.5%	21.7%	-3.4%	0.2%
O=C(Nc1ccc(N2CCN(C(=O)C3CC3)CC2)cc1)c1cccs1
 : -3.5	-5.3	0.5	-12.4%	15.7%[15.4 µM]	-28.2%	.
CC1C(=O)Nc2ccc(S(=O)(=O)N3CCc4ccccc4C3)cc2NC1=O (stereo not given)
 : -7.0	-4.3	1.2	3.1%	6.2%[15.4 µM]	5.7%	-0.5%
CC(=O)Nc1ccc(S(=O)(=O)CCC(=O)O)cc1
 : ?	-10.6	1.3	3.4%	-5.1%	1.6%	-0.3%
Cc1ccccc1C1c2[nH]c3ccccc3c2CCN1Cc1cccn1-c1ncccn1 (stereo not given)
 : 2.0	-17.4	-1.5	-3.3%	-21.5%	?	-8.6%
CCOc1ccccc1NC(=O)c1ccccc1NS(C)(=O)=O
 : 25.0	-6.1	3.1	16.7%	-11.1%	-10.1%	-6.6%
COc1ccc(Cc2nnc(NCCO)[nH]c2=O)cc1OC
 : -2.7	-2.1	1.5	10.9%	35.9%	-0.5%	.
CCOc1ccc(Cl)cc1S(=O)(=O)n1cnc2ccccc21
 : -7.3	-2.3	-1.7	7.9%	-33.3%[inhibitor]	5.9%	-0.6%
O=C(Nc1ccc(Br)cn1)c1cccc2ccccc12
 : .	-8.4	.	.	46.8%[15.4 µM]	0.7%	25.1µM*
COc1ccc(NC(=O)C2CCCN2C(=O)NCc2ccccc2)cc1OC (stereo not given)
 : 18.4	-10.0	0.5	14.5%	7.1%	16.4%	0.2%
Cc1ccc(OC(=O)C(F)(F)F)c2c1NCCC2
 : -4.3	-3.4	2.5	12.3%	2.6%	1.9%	-1.1%
C[C@H](CO)N1C[C@H](C)[C@@H](CN(C)C(=O)Nc2ccccc2)Oc2ccc(NC(=O)c3ccncc3)cc2C1=O
 : .	2.9	.	.	.	15.4%	1.6%

In the list so far, 3 have a CF3 group:
Screens in order: TRPV1 PAM	D2 PAM	Menin MLL FP FL	Sfp PPTase inh	gsp agonist	gsp antagonist	ClpP mod
CN(C)C(CNc1ccc(C(F)(F)F)cc1[N+](=O)[O-])c1ccccc1 (stereo not given)
 : 0.1	-13.9	1.8	-11.2%	17.9%[15.4 µM]	-38.7%	.
O=C(Nc1cc(C(F)(F)F)ccc1N1CCOCC1)C1=NN(c2ccccc2)C(=O)CC1
 : -4.5	-5.1	.	-1.5%	21.7%	-3.4%	0.2%
Cc1ccc(OC(=O)C(F)(F)F)c2c1NCCC2
 : -4.3	-3.4	2.5	12.3%	2.6%	1.9%	-1.1%

Source: PubChem BioAssay
